# KCNQ2 pot – KCNQ2 (rat) channel potentiation | O88943 | CHO-K1 KCNQ2, FluxOR thallium flux fluorescence; active compounds read high | B-score at 10 µM | 0.54% of 310,000 active | AID 2239;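 active means fluorescence ratio B-score at least 3 SD of library B-scores, with initial fluorescence B-score within 3 SD, cut at about 5.3 in these data; same plate scores as AID 2156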;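 further: B-score of peak minus minimum over baseline fluorescence ratio after K+ and Tl+ stimulus; positive B-score means potentiation of KCNQ2 with more thallium influx and brighter signal; only the inactives scoring about 0 or higher are listed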
# Target sequence (O88943 whole entry, looked up): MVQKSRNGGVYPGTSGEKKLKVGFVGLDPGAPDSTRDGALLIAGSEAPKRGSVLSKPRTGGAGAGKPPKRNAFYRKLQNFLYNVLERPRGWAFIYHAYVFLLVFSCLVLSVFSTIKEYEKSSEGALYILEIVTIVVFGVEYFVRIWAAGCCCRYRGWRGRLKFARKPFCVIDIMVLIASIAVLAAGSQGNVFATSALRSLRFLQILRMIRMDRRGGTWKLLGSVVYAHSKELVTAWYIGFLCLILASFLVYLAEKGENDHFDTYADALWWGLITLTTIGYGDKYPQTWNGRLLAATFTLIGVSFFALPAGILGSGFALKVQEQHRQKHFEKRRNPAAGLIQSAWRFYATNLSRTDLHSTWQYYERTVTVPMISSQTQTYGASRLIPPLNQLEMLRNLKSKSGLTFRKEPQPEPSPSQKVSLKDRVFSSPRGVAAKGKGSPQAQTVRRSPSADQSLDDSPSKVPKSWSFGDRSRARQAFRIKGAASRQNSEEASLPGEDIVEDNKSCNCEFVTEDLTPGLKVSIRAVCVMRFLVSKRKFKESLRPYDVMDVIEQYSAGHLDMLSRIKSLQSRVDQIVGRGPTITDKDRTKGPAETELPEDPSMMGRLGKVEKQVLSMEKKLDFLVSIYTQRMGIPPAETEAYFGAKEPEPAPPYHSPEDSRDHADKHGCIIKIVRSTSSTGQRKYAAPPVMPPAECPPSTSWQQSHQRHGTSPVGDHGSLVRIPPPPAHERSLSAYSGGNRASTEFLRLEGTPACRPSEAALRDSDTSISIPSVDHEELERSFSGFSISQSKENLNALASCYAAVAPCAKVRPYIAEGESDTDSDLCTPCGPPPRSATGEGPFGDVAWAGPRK
# KCNQ2 pot baseline – recorded beside KCNQ2 pot, whose call it bears; B-score; compound at 10 µM; measured here: initial fluorescence intensity artifact check;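 brightness before thallium and not channel activity; 0 = typical well and far values either way flag optical interference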
# * marks the source's active call; other numbers are inactive results.
# Every second line gives: KCNQ2 pot	KCNQ2 pot baseline
> Cc1ccc(N2C(=O)C3C4C=CC(CNC(=S)N5CCN(c6cccc(C)c6)C(C)C5)(O4)C3C2=O)cc1 (stereo not given)
→ 0.79	-0.69
> COc1ccc(N2C(=O)CC(Sc3nc4c(cc3C#N)CCC4)C2=O)cc1 (stereo not given)
→ 0.47	-0.1
> Cc1c(N2C(=O)/C(=C/C3CC=CCC3)SC2=S)c(=O)n(-c2ccccc2)n1C (stereo not given)
→ 0.25	2.1
> CCC(C)N(C(=O)Cn1cnc2c1c(=O)n(C)c(=O)n2C)C1CCS(=O)(=O)C1 (stereo not given)
→ 1.9	1.1
> CCc1cc(C(N)=S)ccn1
→ 0.62	0.82
> CCCc1cc(=O)oc2cc(C)cc(OC(=O)c3ccco3)c12
→ 1	0.45
> CC(C)(C)CC(=O)Nc1nnc(-c2cccs2)s1
→ 0.33	-1.3
> O=c1[nH]c(CSc2nnc(NCCCN3CCOCC3)s2)nc2cc(Cl)ccc12
→ 0.34	0.34
> CCOC(=O)C1CCN(C(=O)c2n[nH]c(=O)c3ccccc23)CC1
→ 0.44	2.2
> COc1ccccc1C(=O)NC(CCSC)C(=O)NCC(c1ccccc1OC)N1CCCC1 (stereo not given)
→ 2.3	0.14
> O=C(Nc1ccc(Cl)cc1)c1cccc(S(=O)(=O)Nc2ccccn2)c1
→ 0.3	-0.21
> O=C(Nc1ccc2oc(=O)ccc2c1)c1ccco1
→ 1.1	0.74
> N#CCCSCc1ccc(OCC(=O)O)cc1
→ 1.4	0.22
> N#Cc1ccc(-c2nc3cc(Cl)ccc3c(=O)n2O)cc1
→ 4.7	2.4
> C/C(=N\NC(=O)CN1CCN(Cc2ccccc2)CC1)c1cccs1
→ 0.08	0.08
> COc1cc2[nH]c3c(=O)n(CCN4CCOCC4)cnc3c2cc1OC
→ 0.05	1.9
> O=C(CSc1nnc(CNC(=O)c2ccc(F)cc2)o1)Nc1nccs1
→ 1	-0.14
> CCCC(=O)C1=C(O)C(C(=O)OC)C(C)(C)CC1=Nc1ccc(OC)cc1 (stereo not given)
→ 1.6	-1.8
> COc1ccc(C(C)C)cc1S(=O)(=O)n1cnc(C)c1
→ 3	0.03
> CC(=O)c1ccc(Nc2nc3ccccc3nc2NS(=O)(=O)c2cccs2)cc1
→ 1.6	1.2
> CCNC(=S)N(Cc1ccc2c(c1)OCO2)C1CC(=O)N(c2ccc(OC)cc2)C1=O (stereo not given)
→ 0.32	-1.5
> CCN(CC(=O)Nc1c(F)cccc1F)C(=O)CCCc1c[nH]c2ccccc12
→ 0.46	-0.64
> CCOC(=O)c1ccc(NS(=O)(=O)c2ccc3c(c2)n(C)c(=O)n3C)cc1
→ 0.81	0.2
> Cc1ccc(S(=O)(=O)CCc2nnc(NC(=O)C3CCCCC3)s2)cc1
→ 0.44	0.48
> COc1cnc(-c2ccccn2)nc1NC(C)C
→ 1.2	0.02
> Cc1nc(C)c(CCNC(=O)c2ccccc2)s1
→ 0.3	0.04
> Nc1nc(-c2ccc(Cl)cc2)nn1C(=O)c1cccs1
→ 0.01	-0.15
> O=C(CCCCCNC(=O)c1ccccc1)N/N=C/c1ccccc1O
→ 0.19	0.13
> COc1ccc(-c2[nH]ncc2CN(C)C(C)c2cccs2)c(F)c1 (stereo not given)
→ 0.5	-0.53
> CC(c1ccon1)N(C)Cc1cn[nH]c1-c1ccc(F)cc1F (stereo not given)
→ 0.03	2.1
> CCOc1ccc(N2CC(C(=O)Nc3ccc(N4CCOCC4)cc3)CC2=O)cc1 (stereo not given)
→ 0.44	-0.78
> CC(=O)c1ccc(NC(=O)c2onc(C)c2Cl)cc1
→ 0.91	1.1
> CCOC(=O)c1nc(-c2ccccc2)oc1N(C)C
→ 0.1	2.1
> CCN(CC)CCC#CC(O)(c1ccccc1)c1ccccc1
→ 0.19	0.17
> Cc1cc(C)nc(SCc2cccc(C(=O)O)c2)n1
→ 0.6	1
> CCN(CC)S(=O)(=O)c1ccc(Cl)c(NC(=O)COC(=O)c2cccn2C)c1
→ 0.46	0.19
> CCCC(=O)NC1CCCc2c1cnn2-c1ccc(C)c(C)c1 (stereo not given)
→ 3.2	-0.07
> CCOC(=O)C1CCN(c2ccc(Cl)nn2)CC1
→ 1.1	0.25
> COc1ccc(N2C(=O)CC(N(C)CCc3ccc(OC)c(OC)c3)C2=O)cc1 (stereo not given)
→ 0.47	1.2
> CCc1ccc(C(=O)COC(=O)CNC(=O)c2ccc(Br)o2)cc1
→ 0.41	0.01

# Shown with tabs: entries from further up.
Structure	KCNQ2 pot	KCNQ2 pot baseline
COc1ccccc1C(=O)NC(CCSC)C(=O)NCC(c1ccccc1OC)N1CCCC1 (stereo not given)	2.3	0.14
O=C(Nc1ccc(Cl)cc1)c1cccc(S(=O)(=O)Nc2ccccn2)c1	0.3	-0.21
O=C(Nc1ccc2oc(=O)ccc2c1)c1ccco1	1.1	0.74
N#CCCSCc1ccc(OCC(=O)O)cc1	1.4	0.22
N#Cc1ccc(-c2nc3cc(Cl)ccc3c(=O)n2O)cc1	4.7	2.4
C/C(=N\NC(=O)CN1CCN(Cc2ccccc2)CC1)c1cccs1	0.08	0.08
COc1cc2[nH]c3c(=O)n(CCN4CCOCC4)cnc3c2cc1OC	0.05	1.9
O=C(CSc1nnc(CNC(=O)c2ccc(F)cc2)o1)Nc1nccs1	1	-0.14
CCCC(=O)C1=C(O)C(C(=O)OC)C(C)(C)CC1=Nc1ccc(OC)cc1 (stereo not given)	1.6	-1.8
COc1ccc(C(C)C)cc1S(=O)(=O)n1cnc(C)c1	3	0.03
CC(=O)c1ccc(Nc2nc3ccccc3nc2NS(=O)(=O)c2cccs2)cc1	1.6	1.2
CCNC(=S)N(Cc1ccc2c(c1)OCO2)C1CC(=O)N(c2ccc(OC)cc2)C1=O (stereo not given)	0.32	-1.5
CCN(CC(=O)Nc1c(F)cccc1F)C(=O)CCCc1c[nH]c2ccccc12	0.46	-0.64
CCOC(=O)c1ccc(NS(=O)(=O)c2ccc3c(c2)n(C)c(=O)n3C)cc1	0.81	0.2
Cc1ccc(S(=O)(=O)CCc2nnc(NC(=O)C3CCCCC3)s2)cc1	0.44	0.48
COc1cnc(-c2ccccn2)nc1NC(C)C	1.2	0.02
Cc1nc(C)c(CCNC(=O)c2ccccc2)s1	0.3	0.04
Nc1nc(-c2ccc(Cl)cc2)nn1C(=O)c1cccs1	0.01	-0.15
O=C(CCCCCNC(=O)c1ccccc1)N/N=C/c1ccccc1O	0.19	0.13
COc1ccc(-c2[nH]ncc2CN(C)C(C)c2cccs2)c(F)c1 (stereo not given)	0.5	-0.53
CC(c1ccon1)N(C)Cc1cn[nH]c1-c1ccc(F)cc1F (stereo not given)	0.03	2.1
CCOc1ccc(N2CC(C(=O)Nc3ccc(N4CCOCC4)cc3)CC2=O)cc1 (stereo not given)	0.44	-0.78
CC(=O)c1ccc(NC(=O)c2onc(C)c2Cl)cc1	0.91	1.1
CCOC(=O)c1nc(-c2ccccc2)oc1N(C)C	0.1	2.1
CCN(CC)CCC#CC(O)(c1ccccc1)c1ccccc1	0.19	0.17
Cc1cc(C)nc(SCc2cccc(C(=O)O)c2)n1	0.6	1
CCN(CC)S(=O)(=O)c1ccc(Cl)c(NC(=O)COC(=O)c2cccn2C)c1	0.46	0.19
CCCC(=O)NC1CCCc2c1cnn2-c1ccc(C)c(C)c1 (stereo not given)	3.2	-0.07

# Entries of single compounds, quoted from the list. Values in the order: KCNQ2 pot, KCNQ2 pot baseline
# Cc1ccc(S(=O)(=O)CCc2nnc(NC(=O)C3CCCCC3)s2)cc1 is listed as 0.44, 0.48
# Cc1cc(C)nc(SCc2cccc(C(=O)O)c2)n1 is listed as 0.6, 1

# Going on with the list:
Cn1c(SCC(=O)NCCN2C(=O)CSC2=O)nc2ccccc2c1=O
- KCNQ2 pot = 1.3
- KCNQ2 pot baseline = -0.44

Cc1cccc(NC(=O)NC(C)C(c2cccs2)N2CCOCC2)c1 (stereo not given)
- KCNQ2 pot = 0.02
- KCNQ2 pot baseline = -0.2

NS(=O)(=O)c1ccc(Nc2ccc3nonc3c2[N+](=O)[O-])cc1
- KCNQ2 pot = 0.56
- KCNQ2 pot baseline = -0.27

CCc1ccc(C(=O)COC(=O)c2cc([N+](=O)[O-])ccc2N2CCOCC2)cc1
- KCNQ2 pot = 0.04
- KCNQ2 pot baseline = -0.27

COc1ccc(NC(=O)CCCCCn2nnc3ccccc3c2=O)cc1OC
- KCNQ2 pot = 0.13
- KCNQ2 pot baseline = -0.87

CC(C(=O)NC1CCCCC1)N1CCN(C)CC1 (stereo not given)
- KCNQ2 pot = 0.04
- KCNQ2 pot baseline = 1.1

Cc1ccc(C(=O)NC(C)c2nnc(SCC(=O)NC3CCCC3)n2C)cc1 (stereo not given)
- KCNQ2 pot = 0.49
- KCNQ2 pot baseline = -1.5

Cc1ccc(S(=O)(=O)CCC(=O)OCc2ccc(Cl)cc2)cc1
- KCNQ2 pot = 0.01
- KCNQ2 pot baseline = 0.1

Cc1cc(C(=O)Nc2nc3c(s2)CCCC3)cs1
- KCNQ2 pot = 0.56
- KCNQ2 pot baseline = -1.2

O=C(COC(=O)c1cccc2ccccc12)Nc1cccnc1Cl
- KCNQ2 pot = 0.23
- KCNQ2 pot baseline = 0.1

O=C(CCCN1C(=O)c2cccc3cccc(c23)C1=O)NCCN1CCOCC1
- KCNQ2 pot = 1.1
- KCNQ2 pot baseline = -0.63

COc1ccc(C(=O)Nc2c(C)ccc3nsnc23)cc1[N+](=O)[O-]
- KCNQ2 pot = 0.45
- KCNQ2 pot baseline = -0.66

COC(=O)CN(C(=S)Nc1ccc(F)cc1)C1CC(=O)N(c2ccc(OC)cc2)C1=O (stereo not given)
- KCNQ2 pot = 0.01
- KCNQ2 pot baseline = 0.26

CC(C)CCn1c(CN2CCN(Cc3ccccc3)CC2)nc2c1c(=O)[nH]c(=O)n2C
- KCNQ2 pot = 1.3
- KCNQ2 pot baseline = -2.2

Fc1ccc(Nc2nnns2)cc1
- KCNQ2 pot = 2
- KCNQ2 pot baseline = -1.3

CNC(=O)c1csc(-c2ccncc2)n1
- KCNQ2 pot = 1.8
- KCNQ2 pot baseline = -0.11

O=C(O)c1cccc(S(=O)(=O)Nc2ccccc2C(=O)NCCc2ccccc2)c1
- KCNQ2 pot = 0.51
- KCNQ2 pot baseline = -0.27

CCN(CC)S(=O)(=O)c1ccc(S(=O)(=O)N2CCC(C(=O)NC3CCN(Cc4ccccc4)CC3)CC2)cc1
- KCNQ2 pot = 0.92
- KCNQ2 pot baseline = -0.15

CCOC(=O)c1sc(NC(=O)/C=C/c2cnn(C)c2C)c(C(=O)OCC)c1C
- KCNQ2 pot = 1.3
- KCNQ2 pot baseline = 0.61

O=C(NCc1ccccc1)c1ccccc1Br
- KCNQ2 pot = 0.68
- KCNQ2 pot baseline = -2.7

CC(=O)c1cccc(NC(=O)CSc2nc(=O)n(Cc3ccccn3)c3c2CCC3)c1
- KCNQ2 pot = 0.16
- KCNQ2 pot baseline = 0.99

COc1ccc(-c2[nH]ncc2/C=N/NC(=O)c2ccncc2)c(OC)c1
- KCNQ2 pot = 0.56
- KCNQ2 pot baseline = -2.1

CC1(C(=O)NCc2ccccn2)C=CCN1C(=O)c1ccccc1 (stereo not given)
- KCNQ2 pot = 1.3
- KCNQ2 pot baseline = 1.9

CCC1=NN(C(=O)COc2ccccc2)C(O)(c2ccncc2)C1 (stereo not given)
- KCNQ2 pot = 0.13
- KCNQ2 pot baseline = -1.5

O=C(O)c1cccc(N(CCO)CCO)c1
- KCNQ2 pot = 1.9
- KCNQ2 pot baseline = -2.4

COc1ccc(NC(=O)c2cccc(N3C(=O)C4C5CCC(C5)C4C3=O)c2)cc1 (stereo not given)
- KCNQ2 pot = 1.7
- KCNQ2 pot baseline = -0.68

O=C(Cn1c(=O)c2c(ncn2Cc2ccccc2)n(Cc2ccccc2)c1=O)N1CCc2ccccc21
- KCNQ2 pot = 0.23
- KCNQ2 pot baseline = 0.05

CCN(CC(=O)Nc1c(F)cccc1F)C(=O)CCc1nc2cc(S(=O)(=O)N3CCOCC3)ccc2n1C
- KCNQ2 pot = 0.61
- KCNQ2 pot baseline = 0.52

# An excerpt; count on the stated rates, not on these rows.
